# High-throughput results as filed in PubChem.
# RN4220 kill: kills Staphylococcus aureus RN4220; S. aureus RN4220 growth, OD600, 16 h; hit rate 0.33% among 330,000; inhibition, % (no concentration beside the values);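 active = z-score of -3 or lower and OD600 up to 0.18 on both plates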;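 note: plate controls were untreated cells for no effect and reference antibiotic for full effect; stock transfer was 100 nL into about 80 µL; one replicate is shown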
# PrP UTR inh: suppresses PrP 5' UTR mRNA reporter expression | cell-based PrP 5' UTR mRNA reporter, plate reader | inhibition, % (test concentration not listed) | hit rate 0.35% among 340,000;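 active = every replicate at 50% or more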;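 note: 0 = median of the neutral control wells; tested in H4 reporter cells; numbers are from one replicate; inactives centre near -14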
# ugtP null kill: growth inhibition of S. aureus ugtP deletion strain. hit rate 0.54% among 330,000. S. aureus RN4220 ugtP deletion, OD600 growth, 16 h; some inactives read as strong as hits. growth inhibition, % (no concentration beside the values);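 active = z-score under -3 and OD600 up to 0.15 on both plates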;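 note: plate controls were untreated wells for no effect and antibiotic for full effect; wells of about 80 µL received 100 nL stock; the first replicate is given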
# Mtb hypoxia inh: reduces hypoxia-regulated biosensor signal in M. tuberculosis | hit rate 0.1% among 300,000 | fluorescence inhibition, % (no concentration beside the values) | M. tuberculosis hypoxia-regulated fluorescent reporter, fluorescence;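 active = 35 to 45% if threefold the growth effect, above 45% if 1.5-fold the growth effect; inactive = the rest, general growth blockers included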;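 note: wells of about 50 µL received 100 nL stock; 0% = vehicle wells and 100% = reference inhibitor wells; whole bacteria with a GFP reporter of the hypoxia response; strong numbers were not always called active; many hits fall short of the cut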
# BJeLR lethal: BJeLR cell viability loss | hit rate 0.17% among 300,000 | BJeLR (HRASV12) viability, CellTiter-Glo ATP luminescence, 48 h; reference of the scale not given here | inhibition, % (no concentration beside the values);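 active = replicate mean above 50%; inconclusive = above 50% but judged a plate artefact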;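 note: 50 nL library stock added to about 25 µL; numbers are from one replicate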
# Autofluor counter: counter-screen for toxin protease inhibitors: compound fluorescence. hit rate 3.1% among 360,000. fluorescence intensity (no concentration beside the values). compound autofluorescence counterscreen, microsphere flow cytometry; active compounds read high;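 active = at least 3 SD above the mean of all compounds, about 16000 in these data; inconclusive = too few beads counted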;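 note: 100 nL of 1 mM stock went into each well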
# Mtb hypoxia inh growth: further read-out of Mtb hypoxia inh, marked with its call; growth inhibition, %; measured here: M. tuberculosis growth (absorbance);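 0% = vehicle and 100% = reference antibiotic; read after six days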
# * = called active by the depositor; ? = inconclusive; / = not tested or not shown. An unsorted share of the library, and some 4% of all compounds hit somewhere here.
SMILES,RN4220 kill,PrP UTR inh,ugtP null kill,Mtb hypoxia inh,Mtb hypoxia inh growth,BJeLR lethal,Autofluor counter
COc1ccc(CNC(=O)Cn2nc(C(F)(F)F)c(Br)c2C)cc1,/,-18,/,/,/,5,3881
CCN(C[C@H]1N[C@@](C)(C(=O)OC)[C@H]2C(=O)N(C)C(=O)[C@@H]12)C(=O)c1ccc(C(C)(C)C)cc1,0.9,58*,2,-2,4,/,4039
Cc1ccc(C(=O)N(Cc2cccnc2)Cc2cc3cc(C)ccc3n3nnnc23)cc1,2.8,-11,2,8,4,-11,5628
Cc1cccc(C)c1NC(=O)CN(C)C(=O)c1cccc(S(=O)(=O)N2CCN(c3ccc(F)cc3)CC2)c1,0.7,6,0,-9,1,5,?
O=C(c1ccco1)N1CCN(C(=O)c2ccccc2NS(=O)(=O)c2ccc(F)cc2)CC1,1.5,-16,6,3,-6,9,4460
Cc1c(C(N)=O)sc2ncn(CC(=O)N3CCC(C)CC3)c(=O)c12,4.6,-22,-3,13,1,-5,22473*
c1ccc(-c2nc(SCc3nc4ccccc4[nH]3)c3oc4ccccc4c3n2)cc1,14,-19,14,-2,1,/,4217
Cc1noc(NS(=O)(=O)c2ccc(NC(=O)CCn3c(=O)oc4ccccc43)cc2)c1C,-11,-7,20,16,20,-7,4386
Cn1c(=O)c2cc(NCc3ccccc3)nnc2n(C)c1=O,4.2,-16,2,3,7,-2,10829
CC1CCC(C(C)C)C(OC(=O)Cn2c(-c3ccc(Cl)cc3)[n+](C)c3ccccc32)C1 (stereo not given),100*,5,100*,/,/,21,3540
CCOC(=O)c1cc(-c2ccccc2)n(CC(=O)O)c1C,-0.8,9,0,/,/,/,2960
COc1cc(OC)cc(C(=O)n2nc(C)cc2C)c1,5.2,-12,7,3,6,-5,7640
COc1cc(CCC(=O)OCC(=O)Nc2ccc(C(N)=O)cc2)cc(OC)c1OC,2.7,-30,7,7,7,1,4640
CC(NC(=O)C12CC3CC(CC(C3)C1)C2)C(=O)NN=CC1=C(N2CCOCC2)/C(=C\c2ccccc2)CC1 (stereo not given),-10,/,-8,3,4,/,/
COC(=O)[C@@]12CCCCN1C(c1ccc(-c3ccc(Cl)c(Cl)c3)cc1)C1C(=O)N(C)C(=O)C12 (stereo not given in full),-1.7,/,-19,7,4,/,/
CCCc1cc(=O)oc2cc(OCC(=O)Nc3ccc(S(N)(=O)=O)cc3)ccc12,-7.2,-8,-7,-10,-11,1,5425
O=C(Cc1ccc(Cl)cc1)NN=Cc1cccs1,3.4,/,0,0,2,/,/
O=C(CN1CCN(S(=O)(=O)c2ccc(F)cc2)CC1)Nc1ccc2c(c1)OCO2,4.5,-10,5,/,/,2,3556
C=C(C)C(=O)Nc1cccnc1Oc1ccc(F)cc1F,5.5,-13,7,14,6,-7,6298
Cc1ccc(N(C)S(=O)(=O)c2cccc(C(=O)Nc3nc4ccccc4[nH]3)c2)cc1,-3.2,-27,-12,2,-3,-13,2521
COc1ccc(NC(=O)COC(=O)CNC(=O)C2CCCCC2)cc1OC,1.1,-18,5,4,14,/,3563
O=C(CN1CCCCC1)Nc1ccc(NC(=O)c2ccc(Cl)cc2)cc1Cl,11,-5,9,-1,1,-15,6502
O=C(CCc1nnc(-c2ccc3c(c2)OCO3)o1)NC(c1ccccn1)C(F)(F)F (stereo not given),1.2,-23,5,5,-6,-2,2138
Cc1ccc(S(=O)(=O)N2CCCCC2)cc1NC(=O)COC(=O)c1c(F)cccc1F,3.7,-17,7,-3,3,-2,4457
CCC(=O)NC(=S)Nc1c(C)cc(Br)cc1C,-2.7,-28,0,14,4,-12,4149
COc1ccccc1N(CC(=O)NC1CCCC1)S(=O)(=O)c1cccc(C(F)(F)F)c1,3.9,-13,3,4,-5,/,7584
CCCCCCCCC1CC(C(=O)Nc2ccccc2)C(=O)O1 (stereo not given),-1.4,-25,-12,2,0,1,4199
CCN(CC)S(=O)(=O)c1ccc(N2CCOCC2)c(C(=O)O)c1,7.4,-23,10,/,/,-5,2865
Cc1c(Cl)cccc1NC(=O)C1CCN(c2cnccn2)CC1,0.5,-17,8,-2,-1,-7,3981
CCc1ccc(NC(=O)C(=O)NCCOc2ccccc2Cl)cc1,31,-10,4,7,7,-1,3249
O=C(CCCc1c[nH]c2ccccc12)N1CCN(S(=O)(=O)c2cccs2)CC1,9.2,-27,-8,4,6,6,5727
Cc1cc(F)ccc1N1CCC(N2CCN(C(C)C)C(CCO)C2)CC1 (stereo not given),5.7,-5,-1,7,18,-1,2492
CCc1cccc(NS(=O)(=O)c2ccc3c(c2)NC(=O)C(C)S3)c1 (stereo not given),/,-7,/,/,/,5,5510
COc1cc2c(cc1NC(=O)CSc1ccc(Cl)cc1)oc1ccccc12,7.5,-6,3,2,-3,-4,2580
CCc1ccc(N(CC(=O)NC)S(C)(=O)=O)cc1,2.9,-27,4,10,-5,1,9303
Cc1ccc(Cl)cc1NC(=O)N(C)CCO,3.1,-22,14,7,-8,-3,3371
O=C(CSc1nccn1Cc1ccco1)Nc1ccc(F)cc1,5.2,-9,3,11,2,-4,5990
COc1ccc(-c2cc3nc(C)c(CCC(=O)NC(C)CCc4ccco4)c(C)n3n2)c(OC)c1 (stereo not given),4.3,-12,13,6,15,-5,3851
CC(=NOCC(=O)Nc1ccccc1Br)c1cccs1,6.9,/,0,1,0,/,/
O=[N+]([O-])c1cc(/C=N/O)ccc1Oc1ccccc1Cl,/,-56,/,/,/,-23,2622
Cc1cc([N+](=O)[O-])nn1CC(=O)NCc1ccccc1,3.0,-13,3,8,7,7,4029
C[N+]1=C(/C=C/Nc2ccccc2Cl)C(C)(C)c2ccccc21,1.7,-2,1,-3,-1,-4,10825
O=C(CCn1c2c(c3ccccc31)CCCC2)NNC(=O)c1cccc([N+](=O)[O-])c1,3.4,-19,-10,1,2,2,2489
Cc1c(Br)c([N+](=O)[O-])nn1CC(=O)N1CCc2ccccc2C1,6.1,-56,4,14,9,-2,2630
Cc1ccc(Cn2c(SCCN3CCOCC3)nc3c2c(=O)n(C)c(=O)n3C)cc1,-1.0,-16,-9,-4,8,3,12624
CC(NS(=O)(=O)/C=C/c1ccccc1)C(=O)O (stereo not given),1.5,-1,-5,-5,-3,-14,4078
Cc1noc(C)c1C(=O)N1CCCC(C(=O)c2cccc(OC(C)C)c2)C1 (stereo not given),9.3,-4,7,-3,-3,6,4279
Cc1ccc(S(=O)(=O)N2CCN(C(=O)CN3C(=O)NC4(CCOc5ccccc54)C3=O)CC2)cc1 (stereo not given),-1.2,3,-4,8,14,1,4573
CN(C)CCn1c(C(=O)Nc2ccccc2)cc2ccccc21,7.3,-6,-1,/,/,-5,3546
C#CCOCCOCCOCCNc1nc(N2CCN(C(=O)C(Cc3cc4ccccc4[nH]3)n3cc(C(N)CC(C)C)nn3)CC2)nc(N2CCN(C(=O)C(Cc3ccc(O)cc3)n3cc(C(N)C(C)CC)nn3)CC2)n1 (stereo not given),-1.7,/,4,/,/,/,/
O=[N+]([O-])c1cccc(C=Nn2c(COc3ccccc3)n[nH]c2=S)c1,5.2,/,6,8,4,/,/
CCCCC(=O)Nc1cccc(-c2nc3ncccc3o2)c1C,3.7,-12,2,4,2,-7,3806
Cc1cc(C)nc(/N=C(/NC(=O)Nc2cccc(Cl)c2)Nc2ccccc2)n1,/,10,/,/,/,3,8082
CC1CCN(C(=O)CCCOc2ccc(Cl)cc2)CC1,9.6,-45,6,/,/,15,3321
CC(=O)c1cccc(OCc2cc(C(=O)N3CCSCC3)no2)c1,2.9,-82,8,7,5,-12,5097
COc1ccc(OCC#CCN2CCC(C)CC2)cc1,3.7,-13,17,0,9,2,2096
CSc1ccccc1NC(=O)N1CCC(CO)(CC2CCCCO2)CC1 (stereo not given),1.8,-17,3,5,0,-2,4936
O=C(NNC(=O)C1CC(c2cccs2)=NO1)Nc1ccc(Cl)cc1 (stereo not given),5.5,-10,1,-10,-4,4,5783
COc1ccc(N=CC2=C(O)c3ccccc3C2=O)cc1,2.4,26,4,/,/,10,4230
O=C(CN1C(=O)NC2(CCCc3ccccc32)C1=O)N1CCCCC1 (stereo not given),-1.9,-21,1,-3,4,-3,5817

# Ordered by length of the SMILES (highest first): some entries from above.
SMILES,RN4220 kill,PrP UTR inh,ugtP null kill,Mtb hypoxia inh,Mtb hypoxia inh growth,BJeLR lethal,Autofluor counter
Cc1ccc(S(=O)(=O)N2CCN(C(=O)CN3C(=O)NC4(CCOc5ccccc54)C3=O)CC2)cc1 (stereo not given),-1.2,3,-4,8,14,1,4573
O=C(CCn1c2c(c3ccccc31)CCCC2)NNC(=O)c1cccc([N+](=O)[O-])c1,3.4,-19,-10,1,2,2,2489
Cc1ccc(Cn2c(SCCN3CCOCC3)nc3c2c(=O)n(C)c(=O)n3C)cc1,-1.0,-16,-9,-4,8,3,12624
Cc1cc(C)nc(/N=C(/NC(=O)Nc2cccc(Cl)c2)Nc2ccccc2)n1,/,10,/,/,/,3,8082
Cc1c(Br)c([N+](=O)[O-])nn1CC(=O)N1CCc2ccccc2C1,6.1,-56,4,14,9,-2,2630
O=C(CN1C(=O)NC2(CCCc3ccccc32)C1=O)N1CCCCC1 (stereo not given),-1.9,-21,1,-3,4,-3,5817
CC(=O)c1cccc(OCc2cc(C(=O)N3CCSCC3)no2)c1,2.9,-82,8,7,5,-12,5097
CSc1ccccc1NC(=O)N1CCC(CO)(CC2CCCCO2)CC1 (stereo not given),1.8,-17,3,5,0,-2,4936
Cc1cc([N+](=O)[O-])nn1CC(=O)NCc1ccccc1,3.0,-13,3,8,7,7,4029
CN(C)CCn1c(C(=O)Nc2ccccc2)cc2ccccc21,7.3,-6,-1,/,/,-5,3546
CCCCC(=O)Nc1cccc(-c2nc3ncccc3o2)c1C,3.7,-12,2,4,2,-7,3806
CC(NS(=O)(=O)/C=C/c1ccccc1)C(=O)O (stereo not given),1.5,-1,-5,-5,-3,-14,4078
COc1ccc(OCC#CCN2CCC(C)CC2)cc1,3.7,-13,17,0,9,2,2096

# Carrying on:
SMILES,RN4220 kill,PrP UTR inh,ugtP null kill,Mtb hypoxia inh,Mtb hypoxia inh growth,BJeLR lethal,Autofluor counter
Cc1cccc(NCC(=O)N/N=C/c2cccc(Br)c2)c1,/,-13,/,/,/,4,4233
CSc1ccc(CN(C)C(=O)c2ccc(S(=O)(=O)Nc3c(C)n(C)n(-c4ccccc4)c3=O)cc2)cc1,1.7,-11,9,7,11,/,3595
Cc1cccc(C)c1NC(=O)CN(C)CC(=O)Nc1sc2c(c1C(N)=O)CCC2,0.2,-4,0,-2,10,3,5055
COc1ccccc1N1CCN(CC(=O)c2c(N)n(C)c(=O)n(C)c2=O)CC1,3.9,-6,5,15,10,2,3218
CCS(=O)(=O)Nc1cccc(-c2cn3c(n2)SCC3)c1,2.7,-14,3,6,2,-2,5239
Cc1ccc(S(=O)(=O)N2CCN(C(=O)COC(=O)CNC(=O)c3ccccc3)CC2)c(C)c1,2.1,-18,-2,5,-2,-17,5034
CCCCN(C(=O)CCCc1nc2ccccc2c(=O)[nH]1)c1c(N)n(CCCC)c(=O)[nH]c1=O,2.1,-3,3,4,-2,-3,6095
O=C(COC(=O)/C=C/c1ccc(F)cc1)Nc1nnc(-c2ccccc2)o1,7.3,-31,-1,-1,-5,/,3912
O=C(Cc1ccccc1)OCC(=O)N1CCN(S(=O)(=O)c2ccc(Cl)cc2)CC1,2.6,-8,-3,-6,-7,5,4135
CCCCCNC(=O)CSC1=N/C(=C\c2ccc(Cl)c(Cl)c2)C(=O)N1CC,/,-25,/,/,/,6,2933
C[C@H](CO)N1C[C@H](C)[C@@H](CN(C)C)Oc2c(NS(=O)(=O)c3cn(C)cn3)cccc2C1=O,3.0,-18,1,1,-1,/,3628
CCC(C)c1ccccc1N1CC(C(=O)N2CCN(S(=O)(=O)c3ccccc3Br)CC2)CC1=O (stereo not given),0.8,-11,0,2,0,3,?
COc1cccc(NC(=O)CN2CCSc3ccccc32)c1,5.5,-19,5,19,11,3,5732

# Profiles as entered above.
# CCCCN(C(=O)CCCc1nc2ccccc2c(=O)[nH]1)c1c(N)n(CCCC)c(=O)[nH]c1=O is listed with RN4220 kill = 2.1; PrP UTR inh = -3; ugtP null kill = 3; Mtb hypoxia inh = 4; Mtb hypoxia inh growth = -2; BJeLR lethal = -3; Autofluor counter = 6095
# Cc1cccc(C)c1NC(=O)CN(C)CC(=O)Nc1sc2c(c1C(N)=O)CCC2 is listed with RN4220 kill = 0.2; PrP UTR inh = -4; ugtP null kill = 0; Mtb hypoxia inh = -2; Mtb hypoxia inh growth = 10; BJeLR lethal = 3; Autofluor counter = 5055
